HCMV UL50-53 inh – disrupts HCMV UL50-UL53 complex binding. HTRF UL50-UL53 interaction, normalized percent inhibition. inhibition, % (concentration not given with the values). 190,000 compounds, 0.15% hits;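 active = both replicates at 50% or more, plus weaker picks with an unusually low signal ratio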;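 also: stock transfer was 100 nL into about 20 µL; 0% = negative control wells and 100% = wells with untagged competitor protein; inactives centre near -12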
GIV Gai3 FP – inhibitors of GIV GBA-motif binding to rat Galpha-i3; 210,000 compounds, 0.42% hits; percent of control (FP), % (no concentration beside the values); Galpha-i3/FITC-GIV peptide fluorescence polarization, 90 min; active compounds read low; scaled: aluminum fluoride 0%, vehicle 100%;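 active = replicate mean at 85% of control or lower, very high polarization wells dropped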;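 also: wells of about 15 µL received 100 nL stock; the first replicate is given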
Target sequence (P08753 whole entry, looked up): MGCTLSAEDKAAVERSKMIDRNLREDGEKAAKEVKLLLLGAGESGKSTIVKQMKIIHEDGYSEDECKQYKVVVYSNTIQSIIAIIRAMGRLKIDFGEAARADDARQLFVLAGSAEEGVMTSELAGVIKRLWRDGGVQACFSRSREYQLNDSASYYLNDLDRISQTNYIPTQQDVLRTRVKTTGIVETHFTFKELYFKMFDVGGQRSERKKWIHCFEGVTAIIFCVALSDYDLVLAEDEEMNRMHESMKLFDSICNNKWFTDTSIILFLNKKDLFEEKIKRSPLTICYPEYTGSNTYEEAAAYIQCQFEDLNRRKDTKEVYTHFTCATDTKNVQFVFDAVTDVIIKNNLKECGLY
Sa growth inh – inhibitors of Staphylococcus aureus growth at 42 °C; S. aureus RN4220 growth, OD600, 20 h; active compounds read low; 170,000 compounds, 0.53% hits; AID 720641; relative growth, % (test concentration not listed);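 active = growth at 42 °C up to 50% and 20 or more points under that at 30 °C, or under 10% at both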;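 also: 300 nL library stock went into each well; scaled to the means of positive and negative controls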
Sa growth inh second temp – further read-out of Sa growth inh, marked with its call; relative growth, %; measured here: growth at 30 °C;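 optical density after 20 h as mean of two plates; 100% = untreated growth and lower means inhibition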
The depositor's hits bear a star; x = not tested or not shown; & = joins results of further samples.

Order of results: HCMV UL50-53 inh | GIV Gai3 FP | Sa growth inh | Sa growth inh second temp
O=C1C(=O)N(CCCN2CCOCC2)C(c2cccs2)/C1=C(\O)c1ccccc1 (stereo unspecified)
 : x | 100 | 117 | 96
C#CCSc1nc(-c2cccs2)cc(C(F)(F)F)c1C#N
 : -20 | 102 | 97 | 99
O=C(O)c1ccccc1C(=O)N(Cc1ccccn1)Cc1ccccn1
 : -18 | 98 | 106 | 94
CCC(C(=O)N1CCCCC1C)c1ccccc1 (stereo unspecified)
 : -6 | 95 | 105 | 101
CC(C)c1ccc(NC(=O)CN2C(=O)c3cccc4cccc2c34)cc1
 : x | 101 | 111 | 96
Cc1sc2ncnc(OCC(=O)N3CC(C)CC(C)C3)c2c1C (stereo unspecified)
 : -16 | x | 105 | 92
COc1ccccc1Cc1nnc(C(=O)NCCc2ccccc2)o1
 : x | 102 | 100 | 78
CCCNC(=O)C1CCCN1S(=O)(=O)c1cc(C(=O)OCC)n(C)c1 (stereo unspecified)
 : -8 | 102 | x | x
COC(=O)c1c(N=CN(C)C)c(C#N)c2n1CCCC2
 : 4 | 97 | 103 | 70
CCN1CCN(C(=O)Cn2ncc3c4ccccc4n(Cc4ccccc4F)c3c2=O)CC1
 : -6 | 102 | 100 | 90
COc1ccc(/C=C(\NC(C)=O)C(=O)O)c(Cl)c1OC
 : -8 | 110 | 106 | 95
CN(Cc1ccccc1)C(=S)Nc1ccc2nc3n(c(=O)c2c1)CCCCC3
 : 0 | 102 | 107 | 92
CCOC(=O)Cn1nc(-c2ccc(Cl)cc2)ccc1=O
 : x | 105 | 94 | 88
CC(N)c1nc2ccccc2[nH]1 (stereo unspecified)
 : -6 | x | 101 | 92
Cc1nc(-n2nc(C)c(Cc3ccc4c(c3)OCO4)c2C)sc1C(=O)Nc1ccc(Cl)cc1
 : 13 | 101 | 94 | 93
CC(=O)N1CCN(C(=O)c2cc(-c3ccc(C)cc3)nc3ccccc23)CC1
 : -46 | x | 95 | 84
CC(C)OC(=O)c1cc2nc(-c3ccccc3)cc(C(F)(F)F)n2n1
 : -28 | x | 94 | 71
O=C(Cc1ccc(Cl)cc1)NCC1COC2(CCCC2)O1 (stereo unspecified)
 : -21 | 101 | 104 | 85
O=C(C1CCCO1)N1CCN(c2ccc(Cl)c(Cl)c2)CC1 (stereo unspecified)
 : -6 | 101 | 101 | 106
Cc1ccc(-n2ncc(C(=O)NCCCN3CCN(C)CC3)c2C2CCN(C(=O)OC(C)(C)C)CC2)c(C)c1
 : x | 100 | 106 | 79
CCOc1ccc(-n2c(=O)c3sc4ncccc4c3n(CC(=O)NCc3ccccc3)c2=O)cc1
 : -9 | 112 | x | x
N#Cc1ccc(-c2cccc(Cl)c2Cl)o1
 : -38 | 109 | 107 | 109
COc1cc(NC(=O)N(Cc2ccco2)C2CCN(C(C)=O)CC2)cc(OC)c1OC
 : x | 112 | 112 | 103
O=C(c1ccc2c(c1)CCN2S(=O)(=O)c1ccccc1)N1CCN(c2ccccc2)CC1
 : 0 | 109 | 112 | 93
CCOc1ccc(C(=O)NCc2noc(-c3cccc(C)c3)n2)cc1
 : -11 | 108 | x | x
COc1ccc2c(c1)C(=O)N(c1ccccc1)C(=O)C2
 : -29 | x | 80 | 86
COc1cc(/C=N/n2nnnc2N)ccc1OCc1ccc(Cl)cc1Cl
 : -1 | 102 | 95 | 76
OCCNCc1ccc(-c2ccc(Cl)cc2Cl)o1
 : -35 | 105 | x | x
CCCCN(Cc1ccccc1)S(=O)(=O)c1cccc2nsnc12
 : x | 96 | 122 | 89
Cc1ccc(-c2nc(C#N)c(NCc3ccc4c(c3)OCO4)o2)cc1
 : -13 | x | 86 | 88
CCc1nnc(NC(=O)C2Cc3ccccc3C(=O)O2)s1 (stereo unspecified)
 : -6 | 107 | 71 | 80
COc1ccccc1N1CCN(C(=O)CSc2nc(-c3ccccc3)no2)CC1
 : -15 | 104 | x | x
CC(NC(=O)CN(c1ccc(Cl)cc1Cl)S(=O)(=O)c1ccccc1)c1ccccc1 (stereo unspecified)
 : -12 | 102 | 78 | 84
CC(C)N(Cn1nc(-c2ccccc2)n(-c2ccccc2)c1=S)C(C)C
 : -44 | x | 102 | 97
CCn1nnc2c(NC3CCCCC3)ncnc21
 : -17 | 99&106 | 92 | 83
CCSc1nccc(C(F)(F)F)c1C(=O)Nc1c(C)cccc1C
 : -4 | 103 | 120 | 71
Cn1c(Oc2ccc(Cl)cc2)nc2c1c(=O)n(Cc1ccc(F)cc1)c(=O)n2C
 : -19 | 106 | 107 | 88
C=C(C)CSc1nc2ccccc2s1
 : -16 | x | 94 | 93
CCc1cc2c(N3CCN(c4nc(C)cc(C)n4)CC3)ncnc2s1
 : -2 | x | 103 | 91
Cc1cc(Cl)nc(C(C)C)n1
 : -24 | x | 78 | 93
CCc1ccc(NC(=O)c2cc(-c3cccs3)on2)cc1
 : -2 | 108 | 99 | 115
N#CCSc1ccc(-c2ccco2)nn1
 : -119 | 103 | 87 | 71
Cn1c(SCc2ccc(Br)cc2F)nnc1C(F)(F)F
 : -2 | 112 | 110 | 84
Fc1ccc(-c2noc(-c3ccc(N4CCCC4)nn3)n2)cc1
 : -32 | 104 | x | x
CCC1CCc2c(sc3ncnc(N4CCOCC4)c23)C1 (stereo unspecified)
 : x | 88 | 104 | 83
COc1ccc(C(=O)c2sc3nc(-c4ccco4)cc(C(F)(F)F)c3c2N)cc1OC
 : -27 | 167 | 96 | 72
CCOc1ccc(C(=O)OC2CCCN(C)C2)cc1 (stereo unspecified)
 : -20 | 102 | 90 | 82
C/C(=N/O)c1cc(C(C)(C)C)c(O)c(C(C)(C)C)c1
 : -31 | 100 | 84 | 94
CCn1c(CSc2nc3ccccc3s2)nnc1SCc1ccc(C(=O)OC)o1
 : -13 | x | 82 | 84
CCc1ccc(NC(=O)c2[nH]nc3c2CSc2ccccc2-3)cc1
 : x | 103 | 89 | 63
CN(C)S(=O)(=O)CC12CCC(CC1=O)C2(C)C (stereo unspecified)
 : -10 | 99 | 105 | 95
Cc1nc2sccn2c1C(=O)C(F)(F)F
 : -18 | x | 87 | 87
Cn1c(=O)n(C)c2cc(N3CCCC3)c(NC(=O)Nc3ccccc3)cc21
 : 0&-32 | 104&105 | 99 | 83
O=C(Oc1ccc(OC(=O)N2CCOCC2)cc1)N1CCOCC1
 : -3 | 106 | 121 | 84
COC(=O)c1ccccc1NC(=O)CN1CCC(C)CC1
 : -20 | 107 | 119 | 102
CC(Oc1ccccc1)c1nc2ccccc2[nH]1 (stereo unspecified)
 : -23 | x | 94 | 86
Cc1cc(=O)n(CC(C)C)c(O)c1C#N
 : 2 | 109 | 112 | 85
O=C(NCCN1CCOCC1)c1ccc(-n2ccc3ccccc32)s1
 : -20 | 104 | 123 | 68
O=C(NCc1ccco1)c1ccccc1NCCOc1ccc(Cl)cc1
 : -20 | x | 114 | 86
O=S(=O)(c1ccc(Cl)cc1)n1nc(-c2cccnc2)nc1NCc1ccccc1
 : 9 | 101 | x | x

Molecules listed so far that have two or more sulfur atoms, in the order listed:
Order of results: HCMV UL50-53 inh | GIV Gai3 FP | Sa growth inh | Sa growth inh second temp
C#CCSc1nc(-c2cccs2)cc(C(F)(F)F)c1C#N
 : -20 | 102 | 97 | 99
CCCCN(Cc1ccccc1)S(=O)(=O)c1cccc2nsnc12
 : x | 96 | 122 | 89
C=C(C)CSc1nc2ccccc2s1
 : -16 | x | 94 | 93
CCn1c(CSc2nc3ccccc3s2)nnc1SCc1ccc(C(=O)OC)o1
 : -13 | x | 82 | 84

(further entries)
Compound | HCMV UL50-53 inh | GIV Gai3 FP | Sa growth inh | Sa growth inh second temp
Nc1cccc2c1C(=O)N(C(=O)c1ccc(S(=O)(=O)N3CCCCCC3)cc1)C2=O | -21 | x | 78 | 87
CCc1n[nH]c(=O)n1Cn1c(CC)n[nH]c1=O | -12 | x | 76 | 93
CC(=O)NC1C(=O)N(Cc2ccccc2)c2ccccc21 (stereo unspecified) | 0 | x | 68 | 37
COc1ccc(Cn2c(C(=O)O)c(CNCc3ccc(SC)cc3)c3ccc(OC)cc32)cc1 | x | 103 | 100 | 83
CCN(c1ncnc2c1c(-c1ccccc1)cn2-c1ccccc1)C1CCCCC1 | x | 102 | 129 | 83
CCOc1ccc(OCC)c(N2C(=O)NC(=O)/C(=C\c3ccc(OC)c(OC)c3OC)C2=O)c1 | 8 | 108 | x | x
COc1ccc(-c2ccc(NS(=O)(=O)c3cccc(C)c3)cc2)nn1 | x | 103 | 101 | 86
Cc1nn(Cc2ccccc2)c(Cl)c1/C=N/n1c(C)nc2ccccc2c1=O | -13 | x | 109 | 86
CC1(C)CC(NC(=O)/C=C/C(=O)NC2CC(C)(C)NC(C)(C)C2)CC(C)(C)N1 | x | 100 | 93 | 99
Cc1cc(CN2CCN(Cc3ccccc3)CC2)cs1 | x | 102 | 83 | 91
COC(=O)c1ccc(CC(C#N)(c2ccccc2)c2ccccc2)o1 | -32 | x | 103 | 85
C=CCn1nc(SC(C)C)n2c(=O)c3c(nc12)-c1ccccc1CC3(C)C | -38 | 109 | x | x
Cc1cccc(NC(=O)Cn2c(C(F)(F)F)nc3ccccc32)c1C | -12 | 102 | 99 | 84
O=C(O)C(O)Cc1c[nH]c2ccccc12 (stereo unspecified) | -18 | x | 96 | 89
COc1ccc(CCNC(=O)Cn2ccn3nc(-c4ccc5c(c4)OCO5)cc3c2=O)cc1OC | -28 | 103 | x | x
Cc1ccc(S(=O)(=O)NC(=O)Nc2[nH]n(-c3ccccc3)c(=O)c2C2=NCCCCC2)cc1 | -4 | x | 98 | 95
O=C(CSc1nnc(-c2ccc(Cl)cc2Cl)n1Cc1ccco1)c1ccc[nH]1 | 11 | x | 92 | 90
c1cc(CNc2ccc3c(c2)OCCO3)ccn1 | -4 | 105 | 108 | 87
Cc1cccc(N(CC(N)=O)S(C)(=O)=O)c1C | x | 100 | 119 | 98
C=CCNC(=O)c1cc(-c2ccccc2O)on1 | x | 107 | 98 | 90
CCc1ccccc1NC(=O)c1cc(S(=O)(=O)N2CCCC2)cn1C | -22 | 99 | 109 | 94
COc1ccc(-c2cc(C(=O)NCCc3ccccc3)nc3n[nH]c(-c4ccccc4)c23)cc1OC | x | 109 | 116 | 91
Cc1ccc(S(=O)(=O)N2CCC(N3CCN(Cc4ccccc4)C(=O)C3=O)CC2)cc1C | x | 104 | 83 | 91
COC(=O)c1sc(Br)c(Br)c1OC | 4 | 103 | 99 | 95
CCOc1nc(NCCc2ccc(OC)c(OC)c2)nc(N2CCN(c3ccc(OC)cc3)CC2)n1 | -11 | 103 | 119 | 98
Cc1[nH]c(C)c(S(=O)(=O)N2CCc3ccccc3C2)c1C(=O)N1CCCCC1 | -6 | 105 | x | x
COc1ccc(CCC(=O)Nc2cc(Cl)ccc2Sc2nncn2C)cc1 | -44 | x | 76 | 89
O=C(c1nsc2ccccc12)N1CCCCC1 | -16 | 109&107 | 85 | 95
CCOc1ccc(NC(=O)CCC(=O)N2CCCCc3ccccc32)cc1 | -24 | 106 | x | x
CCOc1ccc(NC(=O)Cn2c(=O)n(CCCC(=O)NCc3ccc4c(c3)OCO4)c(=O)c3ccccc32)cc1 | -3 | 105 | 100 | 91
COc1ccc(C2=NN(CC(=O)NCc3ccc(C)cc3)C(=O)CC2)cc1 | x | 100 | 99 | 70
CCN(CC)C(=O)C1CCN(S(C)(=O)=O)CC1 | 3 | 108 | 87 | 82
N#Cc1c(-c2ccco2)cc(-c2cccc(S(=O)(=O)N3CCCCC3)c2)n2c1nc1ccccc12 | -25 | x | 79 | 85
Cc1ccc(Cl)cc1N1CCN(C(=O)c2ccccc2N(Cc2ccccc2)S(C)(=O)=O)CC1 | x | 100 | 98 | 87
CCOC(=O)c1c(-c2ccccc2)oc2ccc(NS(=O)(=O)c3ccc(C(C)C)cc3)cc12 | -21 | 109 | 91 | 84
Cc1ccc(NC(=O)c2sc(=S)n3c2[nH]c(=O)c2cc(Cl)ccc23)cc1 | 1 | 96 | x | x
CCn1c(=O)c2sccc2n2c(CCCC(=O)N3CCN(c4cccc(Cl)c4)CC3)nnc12 | x | 102 | 71 | 28
CCCN1CCN(CCCNC(=O)c2cc3c(=O)n(CC)c4ccccc4c3s2)CC1 | -30 | 100 | 91 | 91
C=CCn1c(C)cc(C(=O)COC(=O)C2CC(=O)N(Cc3ccccc3)C2)c1C (stereo unspecified) | -12 | x | 110 | 91
Nc1ncc(Br)cc1S(=O)(=O)Nc1cccc(Cl)c1 | 4 | x | 112 | 64
Cc1oc2ncnc(N3CCC(C(=O)NCc4ccccn4)CC3)c2c1C | -11 | 101 | x | x
CC(NC(=O)CSc1n[nH]c(N)n1)C1CC2CCC1C2 (stereo unspecified) | -33 | x | 93 | 91
